NPYLR7 agonist – agonists of mosquito NPYLR7 receptor, primary screen, cell-based, Aedes aegypti, calcium fluorescence, mosquito biting behavior | HEK293T NPYLR7/Galpha15, GCaMP6s calcium fluorescence | activation, % at 10 µM | Aedes aegypti neuropeptide Y-like receptor 7 (NPYLR7) | 0.15% of 270,000 active; in the data active = activation above about 40%;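 also: 0% = vehicle and 100% = reference agonist at the receptor; some compounds past the cut are filed as inactive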
NPYLR7 agonist max-min – second read-out of NPYLR7 agonist, no call of its own (marks repeat the call); activation, %; measured here: Max-Min RFU normalised activation; some inactives read as strong as hits;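 span of the calcium signal over five minutes; 0% = vehicle and 100% = native peptide agonist; compound fluorescence can raise it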
The depositor's hits bear a star; & = joins results of further samples.

SMILES	NPYLR7 agonist	NPYLR7 agonist max-min
COCCN(Cc1nc(-c2cc(F)cc(F)c2)oc1C)C(C)C	-3&9	-5&1
O=C(NCCc1ccccc1)c1ccccc1N1CCC(NC(=O)C2CCCC2)CC1	8	7
COc1ccc(OCCNC(=O)c2cc(-c3ccc(C)o3)nc3cc(OC)c(OC)cc23)cc1	-5	-10
O=C(CN1CCCC1)N1N=C(c2ccccc2Cl)CC1c1ccc2c(c1)OCO2 (stereo not drawn)	-2	6
Cc1nn(C)c(Cl)c1S(=O)(=O)N1CC[C@@H]2CC[C@H](C1)N2C	-1	8
CCc1nc2ccc(C(=O)NC3CCN(C)CC3)cn2c1N(C)Cc1cc2ccccc2s1	13	7
O=C(CCc1ccccc1)N1CCN(Cc2cc(=O)c(OCc3ccc(C(F)(F)F)cc3)co2)CC1	29	12
CC(c1nc2ccccc2n1C(F)F)N(C)CCN1CCOCC1 (stereo not drawn)	13	11
CN(Cc1ccccc1)S(=O)(=O)c1ccc(N2C(=O)c3ccccc3C2=O)cc1	1	-2
CCOCCCNC(=O)c1cc(NC(=O)c2cc(C(F)(F)F)cc(C(F)(F)F)c2)ccc1N1CCN(c2ccccc2OC)CC1	16	21
O=C(CN1CCC(C(=O)c2ccccc2)CC1)NC(=O)NCc1ccco1	-3	-3
Cn1c(=O)[nH]c(=O)c2c1nc(N1CCCC1)n2Cc1ccccc1Cl	8	1
CCOC(=O)c1nn(-c2ccc(C)cc2)c(=O)cc1N1CCN(CCO)CC1	10	5
CN(C)c1ccc(NC(=O)c2ccccc2Cl)cc1CN(CC1CC1)S(C)(=O)=O	-2	7
Cc1cncc(NC(=O)c2cccc(CN3CCCC3c3ccccn3)c2)c1 (stereo not drawn)	4	-4
Cc1[nH]nc(C(=O)N(C)CC2CCCCC2)c1Br	2	1
CC(C)(C)c1nnc(NC(=O)NCc2cccnc2)s1	17	13
COC(=O)C1=C(CN2CCCC(O)C2)N(C2CC2)C(=O)NC1c1ccccc1 (stereo not drawn)	0	-3
O=C(NC(c1cccc(Cl)c1)c1ccccn1)C1=CCCCO1 (stereo not drawn)	-25	-25
COc1cccc(CCC(=O)N2CCC(n3c(C)nc4ccc(C)cc43)CC2)c1	-4	-11
CCOC(=O)c1nc2ccccc2nc1N1CCN(S(=O)(=O)c2cccc(OC)c2)CC1	6	1
CCOC(=O)c1c(NC(=O)COCCOC)c(-c2cccc(F)c2)cn1C	8	21
O=C(NCCC1=CCCCC1)c1cc2c(s1)CS(=O)(=O)C2	3	3
CCOC(=O)CN(C(=O)c1cccs1)[C@H]1[C@H](O)[C@@H]2O[C@H]1c1ccccc12	1	3
O=C1CSC(c2cccc(NS(=O)(=O)c3ccc(Cl)cc3)c2)N1c1ccc(F)cc1 (stereo not drawn)	10	15

The results go on:
SMILES	NPYLR7 agonist	NPYLR7 agonist max-min
O=C1C(=O)N(C2CCCC2)C(=O)N1CN1CCN(S(=O)(=O)c2cccs2)CC1	7	6
CCSc1nc(N2CCCCC2)c2cnn(CCNC(=O)c3ccco3)c2n1	1	-1
O=C1C(C(c2ccco2)N2CCN(Cc3ccccc3)CC2)Sc2ncnn21 (stereo not drawn)	9	6
CCCC(=O)OCC(O)CN(Cc1ccc(F)cc1)Cc1cccn1C (stereo not drawn)	19	29
Cc1cc(OC(CCN2CCN(C)CC2)c2ccccc2)ccc1Cl (stereo not drawn)	7	6
O=C1CCC(C(=O)N2CCC(c3ccncc3)CC2)CN1CC1CCCCC1 (stereo not drawn)	19	8
Cc1noc(C)c1S(=O)(=O)N(C)C(C)c1cc2ccccc2o1 (stereo not drawn)	9	7
O=C(Cn1ccn2nc(-c3ccc(Cl)cc3)cc2c1=O)Nc1cccc(F)c1	7	6
COc1ccccc1N1CCN(Cc2ccccc2OCC(=O)O)C(C)C1 (stereo not drawn)	-3	-4
CCOCCCN(CC(=O)c1c(C)c(C(=O)OCC)n(CC)c1C)C(=O)C(CC)c1ccccc1 (stereo not drawn)	-8	-7
Cn1c(=O)c2[nH]c(-c3ccccc3)nc2n(C)c1=O	6	-48
COc1ccc(C[C@H](N)C(=O)N[C@@H]2[C@@H](CO)OC(n3cnc4c(N(C)C)ncnc43)[C@@H]2O)cc1 (stereo partly drawn)	-10&-8	-10&-15
C[C@@H]1CN(Cc2ccc(-c3cn([C@@H]4CN[C@H](C(=O)O)C4)nn3)cc2)C[C@H](C)O1	2	-2
Cc1cc(C(=O)N(Cc2cccnc2)c2nc3c(F)cc(F)cc3s2)nn1C	5	0
C#CCOCC(O)CN(Cc1c(-c2ccccc2)nn(C)c1Oc1ccccc1F)CC(C)C (stereo not drawn)	7	8
c1ccc(-c2ncn(CCCc3cccnc3)c2-c2ccncc2)cc1	0	-4
COc1cccc(CSc2nnc(CNC(=O)c3ccc(Cl)cc3Cl)n2-c2ccc(Cl)cc2Cl)c1	-1	3
O=C(NCC(c1cccnc1)N1CCOCC1)c1c(O)cccc1O (stereo not drawn)	0	3
O=c1oc2cc(O)ccc2c2c1CCC2	-6&3	-13&1
CC(C)c1nn(-c2ccc(Cl)cc2)c(C(C)C)c1C(=O)O	5	16
COCCN(CCC(=O)NCc1ccc(F)cc1)C(=O)c1cc(-c2ccc(C)cc2)on1	3	3
N#Cc1cccc(S(=O)(=O)N2CCN(c3nc4ccccc4nc3-c3ccccc3)CC2)c1	4	0
CSC(C)C(=O)Nc1ccc(I)cc1 (stereo not drawn)	8	7
O=C(O)CCNC(=O)c1ccco1	2	1
CCOC(=O)/C(C#N)=N\Nc1cc(C(=O)Nc2cc(Cl)ccc2Cl)ccc1C(=O)OC	-15	-11

As a working copy, 18 of the compounds above:
SMILES	NPYLR7 agonist	NPYLR7 agonist max-min
CCSc1nc(N2CCCCC2)c2cnn(CCNC(=O)c3ccco3)c2n1	1	-1
O=C1C(C(c2ccco2)N2CCN(Cc3ccccc3)CC2)Sc2ncnn21 (stereo not drawn)	9	6
CCCC(=O)OCC(O)CN(Cc1ccc(F)cc1)Cc1cccn1C (stereo not drawn)	19	29
Cc1cc(OC(CCN2CCN(C)CC2)c2ccccc2)ccc1Cl (stereo not drawn)	7	6
O=C1CCC(C(=O)N2CCC(c3ccncc3)CC2)CN1CC1CCCCC1 (stereo not drawn)	19	8
Cc1noc(C)c1S(=O)(=O)N(C)C(C)c1cc2ccccc2o1 (stereo not drawn)	9	7
O=C(Cn1ccn2nc(-c3ccc(Cl)cc3)cc2c1=O)Nc1cccc(F)c1	7	6
COc1ccccc1N1CCN(Cc2ccccc2OCC(=O)O)C(C)C1 (stereo not drawn)	-3	-4
CCOCCCN(CC(=O)c1c(C)c(C(=O)OCC)n(CC)c1C)C(=O)C(CC)c1ccccc1 (stereo not drawn)	-8	-7
Cn1c(=O)c2[nH]c(-c3ccccc3)nc2n(C)c1=O	6	-48
COc1ccc(C[C@H](N)C(=O)N[C@@H]2[C@@H](CO)OC(n3cnc4c(N(C)C)ncnc43)[C@@H]2O)cc1 (stereo partly drawn)	-10&-8	-10&-15
C[C@@H]1CN(Cc2ccc(-c3cn([C@@H]4CN[C@H](C(=O)O)C4)nn3)cc2)C[C@H](C)O1	2	-2
Cc1cc(C(=O)N(Cc2cccnc2)c2nc3c(F)cc(F)cc3s2)nn1C	5	0
C#CCOCC(O)CN(Cc1c(-c2ccccc2)nn(C)c1Oc1ccccc1F)CC(C)C (stereo not drawn)	7	8
c1ccc(-c2ncn(CCCc3cccnc3)c2-c2ccncc2)cc1	0	-4
COc1cccc(CSc2nnc(CNC(=O)c3ccc(Cl)cc3Cl)n2-c2ccc(Cl)cc2Cl)c1	-1	3
O=C(NCC(c1cccnc1)N1CCOCC1)c1c(O)cccc1O (stereo not drawn)	0	3
O=c1oc2cc(O)ccc2c2c1CCC2	-6&3	-13&1

Next part:
SMILES	NPYLR7 agonist	NPYLR7 agonist max-min
CC1(C(=O)NCc2ccc(C(F)(F)F)cc2)CCN1Cc1ccc2ccccc2c1 (stereo not drawn)	0	-6
COc1ccc(C(=O)NC2(C)CCCc3ccccc32)cc1OC (stereo not drawn)	2	1
CC(C)(C)c1cc(Cl)n2ncc(-c3ccccc3Cl)c2n1	0	-5
CC(C)c1c(C(=O)N2CCOCC2)cnn1-c1ccccc1	22	17
Cc1[nH]c(=O)[nH]c(=O)c1-c1ccc(-c2ccn[nH]2)cc1	-2	-8
O=C(CCn1cc(C(F)(F)F)ccc1=O)Nc1ccc(N2CCCC2=O)cc1	18	15
CC1(C(=O)NCc2cccc3ccccc23)CCN1CCOc1ccccc1 (stereo not drawn)	7	2
COc1cc(OC)cc(-c2ncc(Cl)cn2)c1	13	7
O=c1oc2c(Br)cc(Br)cc2cc1-c1nnc(Nc2ccccc2)s1	-6	-5
CCCCN1CCC(NC(=O)CNC(=O)Nc2cccc(C)c2)CC1	-12	-8
C=CCNC(=O)Nc1cccc(CS(=O)(=O)Cc2ccccc2)c1	0	-5
Cc1ccc(CN(CC(O)COc2ccccc2)CC2CCCO2)s1 (stereo not drawn)	23	29
COc1ncccc1C(=O)N(C1CCCC1)C1CCS(=O)(=O)C1 (stereo not drawn)	0	-2
CCCN1CCN(c2nc3c(c(=O)[nH]c(=O)n3C)n2Cc2ccc(F)cc2)CC1	1	25
COc1ccc(/C=C(/C#N)c2c[nH]c3ccccc23)cc1	-7	-10
COCCNCc1ccc(-c2ccc(F)cc2)o1	5	9
O=c1c(N=Nc2ccc(F)cc2)c(-c2ccccc2)[nH]n1-c1nc(-c2ccccc2)cs1	-6	-7
COc1ccc(CN2CCN(Cc3ccccc3-c3ccco3)CC2CCO)c(F)c1 (stereo not drawn)	9&11	2&-1
CC(C)(C)c1cc2nc(-c3ccccc3Cl)cc(C(=O)N3CCN(Cc4ccc5c(c4)OCO5)CC3)n2n1	-7	-6
C=CCN(CC(O)COC)CC1CC(c2ccc(Cl)cc2)=NO1 (stereo not drawn)	0	8
CCOCCn1cc(C2CCN(C(=O)CCCCCCC(=O)OC)CC2)c2ccccc21	-2	-12
Cc1nc(N)ncc1C(=O)N1CCCC1c1ccc(CN(C)C)cc1 (stereo not drawn)	-2	-5
COc1ccccc1CNC(=O)NC(c1ccccc1)c1nc(C)no1 (stereo not drawn)	1	1
COc1ccccc1-c1c(C)nn2c(N3CCN(C)CC3)cc(C)nc12	4	2
CCN(Cc1ccc(F)cc1)C(=O)CS(C)(=O)=O	15	5

Further structures.
SMILES	NPYLR7 agonist	NPYLR7 agonist max-min
CCOC(=O)N1CCC(N2CCCC(C(=O)c3ccc4c5c(cccc35)CC4)C2)CC1 (stereo not drawn)	10	-1
CSc1ccc(CC(=O)N2CC(=O)N(CC3CCOCC3)CC(OCc3cccnc3)C2)cc1 (stereo not drawn)	7	0
COc1cccc(-c2nnc(SCc3ccc(C(=O)N4CCCC4)cc3)n2-c2cccc(Cl)c2)c1	-11	0
O=C1NCCN(Cc2cccc3ccccc23)C1CC(=O)N1CCN(c2cnccn2)CC1 (stereo not drawn)	4	1
CCN1CCCC1CN(CC1CCN(CCOC)CC1)C(=O)C1CCOCC1 (stereo not drawn)	6	4
CC1CCC(NC(=O)C(C)n2ncn3cccc3c2=O)CC1 (stereo not drawn)	6	3
Cc1nn(CC(C)C)c(C)c1CCC(=O)O	-3	-4
CCCc1cnc(N2CCC3(CCC(=O)N(C)CC3)CC2)nc1	11	7
Cn1cc(COC(=O)c2cc(C3CC3)nn2C(C)(C)C)cn1	1	-1
Cc1ccc(-c2nnc(SC3CCCCC3=O)o2)cc1 (stereo not drawn)	0	6
COc1cc(OC)c(C2=NOC(C(=O)Nc3cnn(C45CC6CC(CC(C6)C4)C5)c3)C2)cc1Cl (stereo not drawn)	0	-2
O=C1C2ON(c3ccccc3)C(c3ccccn3)C2C(=O)N1c1ccc(Br)cc1 (stereo not drawn)	0	6
Cc1cc(NC(=O)C2CCCC2)n(-c2nc(-c3cccs3)cs2)n1	-7	-13
O=C(NCc1cccnc1N1CCCC(O)C1)c1[nH]cnc1-c1ccccc1 (stereo not drawn)	3	0
CCCC(=O)OCC(O)CN(Cc1ccccc1)Cc1ccccc1OC (stereo not drawn)	19	15
CCCN(Cc1ccccc1OC)C(=O)CC1CNCCO1 (stereo not drawn)	-1	19
CC(=O)OC(C(=O)N1CCC(n2c(=O)oc3cccc(C)c32)CC1)c1ccccc1 (stereo not drawn)	7	8
O=NO	-2	-5
O=[N+]([O-])c1ccccc1CN1CCCn2cccc2C1c1ccc(C(F)(F)F)cc1 (stereo not drawn)	16	13
Cc1cccc(C(=O)N(Cc2cccc(F)c2)Cc2cc(NC(=O)c3ccccc3Cl)ccc2N(C)C)c1	28	20
O=C(NCCNc1cccc2ccccc12)c1ccc(CSc2nnc3ccccn23)cc1	10	6
COc1cc(C2=NC(=Cc3ccccc3C)C(=O)O2)ccc1OC(F)F	3	20
CCCN(Cc1nc(C(=O)OC)cs1)C(=O)c1ccc2c(c1)OCO2	23	27
COc1cccc(C=CC(=O)c2cccc(O)c2)c1	4	2
CCOC(=O)N1CCN(/C=C(\C#N)S(=O)(=O)c2ccc(C)cc2)CC1	7	5

Additional results follow:
SMILES	NPYLR7 agonist	NPYLR7 agonist max-min
COC(=O)CN(c1ccccc1Br)S(C)(=O)=O	3	5
Cc1cc2c(=O)n(Cc3ccco3)c(SCC(=O)N3CCc4ccccc43)nc2s1	-8	-3
Oc1ccc(-c2nccn2C2CCC2)c(Cl)c1	1	-4
O=C(c1ccc(F)cc1F)N1CCN(S(=O)(=O)c2ccccc2)CC1	2	-1
CC(Oc1ccccc1)C(=O)NCc1cccc(-c2ncc(-c3ccc(F)cc3)[nH]2)c1 (stereo not drawn)	-8	-12
COc1ccc2nc(N(CCCN3CCOCC3)C(=O)Cc3ccc(F)cc3)sc2c1	-2	-5
C=CCOc1ccc(C=CC(=O)N(Cc2cccs2)C2CCS(=O)(=O)C2)cc1 (stereo not drawn)	10	9
CCCn1c(O)c(N=NC(=O)c2ccccc2O)c2ccccc21	-6	-13
COc1ccc(C)cc1CN(C)C(=O)[C@H](C)NS(=O)(=O)c1cccc(Cl)c1	4	2
Cc1ccc(Cc2nsc(N3CCCN(C(=O)Nc4cccc(C)c4C)CC3)n2)cc1	14	11
CC1=C/C(=N/N=C2\NC(=O)C(CC(=O)Nc3cccc(Cl)c3Cl)S2)CC(C)(C)C1 (stereo not drawn)	1	-2
Cc1ccc(N2C(=O)CSC2c2coc3ccccc3c2=O)cc1C (stereo not drawn)	-1	4

An excerpt, so the mix of outcomes need not match the whole.
